Compound activity deposited in PubChem BioAssay by National Center for Advancing Translational Sciences (NCATS).
gsp antagonist: qHTS for Antagonists of gsp, the Etiologic Mutation Responsible for Fibrous Dysplasia/McCune-Albright Syndrome: qHTS; Potency, µM (doses to about 76.9 µM), for the others: at the top dose activity change, negative = inhibition, actives largely listed as inhibitors; AID 624288, 2012; 340,000 compounds, 0.4% hits; gsp-mutant cells, cAMP HTRF, 30 min; control for the full effect not named in the record; active = falling curve of any shape with a large fitted effect; inconclusive = falling curve, mostly with a smaller effect; inactive = flat or rising curve; cell line not stated here;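 note: intracellular cAMP measured with PDE inhibitor Ro 20-1724 present during compound exposure; potency is the fitted concentration of half-maximal effect; % is set by controls: 0 for no effect and ±100 for the full control effect; nearly all actives have a fitted effect of over 65% in size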
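HTRF cAMP read-out (cAMP-d2 plus anti-cAMP antibody-K in lysis buffer, 30 min RT). Before lysis, cells are exposed to compounds with […] for 30 min at 37C in DPBS containing Ca/Mg, BSA and Tween 20.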
ClpP mod: qHTS Assay for Activators of ClpP; ATP-dependent Clp protease proteolytic subunit (Bacillus subtilis (strain 168)), P80244; purified B. subtilis ClpP, FRET peptide cleavage, 20 min; Potency, µM (series often up to 57.5 µM), without a hit: at the top dose activity change, negative = active; 340,000 compounds, 1.9% hits; AID 651965, 2013; active = well fitted falling curve with a large enough effect; inconclusive = small, poorly fitted or top-dose-only effect; inactive = no such curve, though single readings can be large or run the other way; note: potency is the fitted concentration of half-maximal effect; the source files actives as falling curves though it sought activators and does not explain the sign; nearly all actives have a fitted effect of over 65% in size; many hits overshoot -100%
Target sequence (P80244 whole entry, looked up): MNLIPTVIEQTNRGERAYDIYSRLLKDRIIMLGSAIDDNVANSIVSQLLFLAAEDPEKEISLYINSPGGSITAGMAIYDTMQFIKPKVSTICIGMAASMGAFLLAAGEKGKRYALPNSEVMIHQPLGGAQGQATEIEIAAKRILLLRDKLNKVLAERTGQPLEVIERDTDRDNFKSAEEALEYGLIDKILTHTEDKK
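ClpP 10 microg/mL final, pH 8 Tris/KCl buffer with BSA, glycerol, Tween-20; compound pinned in; FRET-FV substrate; RT 20 min; Ex320/Em430; ΔFRET vs ADEP 5.8 microM, DMSO, no enzyme.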
Menin MLL FP FL: qHTS Assay for Inhibitors Targeting the Menin-MLL Interaction in MLL Related Leukemias: Competition With Fluorescein Labeled MLL-derived Peptide. Fluorescence polarization, fluorescein-MLL peptide displacement from menin. FP activity change, % at 61.4 µM. 290,000 tested, under 10 active; inconclusive = falling polarisation curve, or a change in total fluorescence; inactive = total fluorescence flat and polarisation flat or rising; no compound was filed as active; the % refers to the polarisation; negative = inhibition;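 note: % of control where 0% means no effect; inhibitors lower the polarisation; unlabelled MLL peptide was the positive control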
TRPML1 agonist: qHTS for Agonists of the Human Mucolipin Transient Receptor Potential 1 (TRPML1). Mucolipin-1 (Homo sapiens), Q9GZU1. TRPML1-expressing cells, Ca2+ dye fluorescence, FDSS; host cell line not named in the record; reference of the full effect not given here. activation, % (no concentration beside the values). 410,000 compounds, 0.12% hits. AID 624414, 2012; in the data active = activation above about 50%; inconclusive = about 30% to 50%; inactive = below about 30%; note: 0% is about no effect; the text of the record puts the active cut at 80%
Target sequence (Q9GZU1 whole entry, looked up): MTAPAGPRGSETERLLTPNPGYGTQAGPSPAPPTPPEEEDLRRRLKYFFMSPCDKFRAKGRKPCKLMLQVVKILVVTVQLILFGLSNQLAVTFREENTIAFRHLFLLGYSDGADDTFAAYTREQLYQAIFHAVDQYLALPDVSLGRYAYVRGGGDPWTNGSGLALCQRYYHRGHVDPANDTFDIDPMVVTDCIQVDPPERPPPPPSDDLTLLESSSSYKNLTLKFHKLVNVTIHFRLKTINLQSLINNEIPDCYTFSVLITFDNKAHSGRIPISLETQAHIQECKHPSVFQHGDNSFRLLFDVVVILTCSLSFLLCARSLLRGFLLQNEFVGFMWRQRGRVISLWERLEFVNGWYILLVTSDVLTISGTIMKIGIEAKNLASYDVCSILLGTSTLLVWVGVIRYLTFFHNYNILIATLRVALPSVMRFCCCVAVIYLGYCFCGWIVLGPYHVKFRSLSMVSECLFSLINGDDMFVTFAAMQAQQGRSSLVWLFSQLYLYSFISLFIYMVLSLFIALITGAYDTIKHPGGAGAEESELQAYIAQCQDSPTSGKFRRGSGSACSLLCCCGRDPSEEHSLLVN
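Cells: TRPML1-DL, 1X Tet inducer, ~16 h at 37 degrees C/5% CO2. Dye: ABD Ca8 no-wash + quencher, 45-90 min RT. Read: 10 s baseline, compound add, 110 s agonist phase; 54-4 EC80 (4uM final), 110 s antagonist phase.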
gsp agonist: qHTS for Agonist of gsp, the Etiologic Mutation Responsible for Fibrous Dysplasia/McCune-Albright Syndrome: qHTS; gsp mutant cells, cAMP HTRF, 30 min; control for the full effect not named in the record; Potency, µM (titrated, usually from 76.9 µM), for inactives: at the top dose activation (cAMP increase), hits mostly activators; AID 624287, 2012; 340,000 compounds, 0.13% hits; active = well fitted activation curve with a large enough effect; inconclusive = small, poorly fitted or top-dose-only effect, or another doubt; inactive = no such curve, though single readings can be large or run the other way; cell line not stated here;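 note: phosphodiesterase inhibitor Ro 20-1724 added with compounds to block cAMP breakdown; potency is the fitted concentration of half-maximal effect; nearly all actives have a fitted effect of over 60% in size; about a fifth of the inactives were tested at one dose only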
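Cells stably selected in G418 were plated at 2000/well, grown 16-24 hr, then given compounds in DMSO with the PDE inhibitor […] (300 uM solution added) for 30 min at 37C; cAMP was read by HTRF.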
TRPML1 blocker: qHTS for Inhibitors of the Human Mucolipin Transient Receptor Potential 1 (TRPML1). TRPML1-inducible cells, Ca2+ dye fluorescence, FDSS; active compounds read low; inhibition of EC80 agonist-evoked calcium signal. activity change, negative = inhibition, % (no concentration beside the values). 390,000 compounds, 0.02% hits. AID 624415, 2012; in the data active means activity change below about -50%; inconclusive means about -30% to -50%; inactive means above about -30%;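 note: stimulus is agonist 54-4 at its EC80 concentration; % is set by controls: 0 for no effect and ±100 for the full control effect; compound concentration not given in the record; the text of the record puts the active cut at -80%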
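TRPML1-DL cells, Tet-induced overnight (~16 h, 37 °C) at 1,500 cells/well, were loaded with Ca8 no-wash dye plus quencher for 45-90 min at room temperature. Compounds were pinned during FDSS kinetic reading; agonist 54-4 at EC80 (4 uM final) then added.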
* marks the source's active call; other numbers are inactive results; u = inconclusive; x = no result given; & = joins results of further samples; [ ] = dose if it differs, or a comment. No enrichment for hits. About 2.1% of those tested had a hit in this group.

Every second line gives: gsp antagonist	ClpP mod	Menin MLL FP FL	TRPML1 agonist	gsp agonist	TRPML1 blocker
- O=C(C1=NNCC1c1ccccc1)C1CO1 (configuration not stated)
  -2%	-0.9%	3.5	-0.2	-30%[inhibitor]	-4
- CC1CCN(C(=O)CC(NC(N)=O)c2ccccc2Cl)CC1 (configuration not stated)
  13%	x	-0.5	0.7	-20%[15.4 µM]	1
- COc1cc(C(F)(F)F)nc(-c2ccccn2)n1
  0%	x	-2.3	0.1	-8%[15.4 µM]	40
- Cn1c(=O)c2cc(S(=O)(=O)NCCC(=O)NCCC3=CCCCC3)ccc2n(C)c1=O
  -4%	-7.0%	9.2	-0.3	-23%	-25
- CC12CCC(C(=O)O)(c3nc(C#N)c(C#N)nc31)C2(C)C (configuration not stated)
  16%	-1.0%	-1.0	1.3	16%	15
- CN(C)C(=O)c1sccc1Oc1ccc(F)cc1[N+](=O)[O-]
  -5%	x	0.0	-0.5	-8%[15.4 µM]	-18
- CCOC(=O)Cc1csc(NC(=S)NC(=O)c2ccc(F)cc2)n1
  5%	3.3%	5.8	2.0	-28%	9
- COc1ccc(C(=O)O/N=C(\N)c2ccccn2)c(OC)c1
  7%	-6.4%	1.6	0.0	-14%[15.4 µM]	21
- O=C(Cc1c[nH]c2ccccc12)NNC(=O)c1ccccc1
  6%	-1.9%	-1.6	0.4	9%[15.4 µM]	-10
- C=CCN1C(=O)c2ccc(C(=O)N(CC(C)C)c3c(N)n(CCCC)c(=O)[nH]c3=O)cc2C1=O
  1%	x	x	-0.3	14%[15.4 µM]	9
- COc1ccc(-c2c3c(=O)n(C)c(=O)n(C)c3cn2-c2ccccc2)cc1
  -2%[15.4 µM]	-18%	3.2	3.3	-34%[inhibitor]	13
- CCNS(=O)(=O)c1ccc(OCCNS(C)(=O)=O)cc1
  u	0.3%	-1.8	0.7	-26%	5
- COc1cccc(-c2cc(C(=O)Nc3ccc(F)cc3)[nH]n2)c1
  x	6.4%	x	0.9	x	0
- CN(Cc1ccccc1)C(=O)c1ccc(COc2ccccc2)cc1
  -8%	-0.3%	-7.6	-0.9	-11%[15.4 µM]	3
- O=C(CSc1nnc(-c2ccccc2)n1Cc1ccccc1)NC1CC1
  -16%	-0.2%	0.3	-0.6	-11%	7
- O=C(NC(=O)c1c(F)cccc1F)Nc1ccccc1SC(F)F
  -20%	x	0.1	0.7	0%	16
- CCCN(Cc1nc2cc(Cl)ccc2c(=O)[nH]1)C(=O)c1ccc(S(=O)(=O)N2CCCC2)cc1
  u	-2.0%	x	-0.6	-18%	17
- Cc1ccc(/C=N/Nc2nc(C(C)(C)C)cs2)o1
  39%[activator]	-0.9%	5.8	0.1	-26%	-17
- CC(C)(C)c1ccc(-c2noc(CCC(=O)N3CCOCC3)n2)cc1
  -13%	x	0.4	0.5	-6%[15.4 µM]	-5
- Cc1onc(-c2ccccc2)c1C(=O)OCC(=O)c1ccc[nH]1
  x	0.4%	x	-1.1	-90%[inhibitor]	-5
- COCCNC(=O)Cn1cnc2sc(C)c(S(=O)(=O)N3CCC(C)CC3)c2c1=O
  8%	0.0%	2.8	-0.1	-34%[inhibitor]	4
- c1ccc(OCc2ccc(CCCN3CCOCC3)cc2)cc1
  0%	-1.2%	4.7	0.2	-4%	28
- Cn1c(-c2ccc3c(c2)OCO3)cnc1N
  7%	-5.1%	1.3	-0.6	-35%[inhibitor]	6
- Cc1c(NC(=O)C2CC(c3cccc(Br)c3)=NO2)c(=O)n(-c2ccccc2)n1C (configuration not stated)
  -9%	0.9%	-0.8	1.2	29%	7
- CC(C)CCOC(=O)C1C(c2ccccc2)C(C(=O)O)C1c1ccccc1 (configuration not stated)
  15%	-0.5%	2.5	0.0	-29%	9
- Cc1cccnc1NC(=O)c1cccc(S(=O)(=O)N2CCN(c3ccccc3)CC2)c1
  -5%	x	x	0.9	-1%[15.4 µM]	-22
- Cc1ccc2nc(NC(=O)COC(=O)CSc3nc(C)cc(C)n3)sc2c1
  -10%	-2.6%	-4.1	-0.3	27%	6
- CCCCN(C(=O)c1ccc(N(C)S(=O)(=O)c2ccc(C)cc2)cc1)c1c(N)n(CCCC)c(=O)[nH]c1=O
  2%	x	x	-0.4	-18%[15.4 µM]	-7
- Cc1ccc(-c2cn(-c3ccc(SC(F)F)cc3)c3[n+]2CCC3)cc1
  5%	-2.9%	-8.5	0.8	7%	16
- C[C@H]1CN([C@@H](C)CO)C(=O)CCCn2nncc2CO[C@H]1CN(C)C(=O)CCC(F)(F)F
  x	-1.1%	x	-0.3	-94%[inhibitor]	4

Every second line gives: gsp antagonist	ClpP mod	Menin MLL FP FL	TRPML1 agonist	gsp agonist	TRPML1 blocker
- Cc1ccc(CNC(=O)c2cc(C)nn2-c2ccccc2)cc1
  11%	x	3.4	-1.0	3%[15.4 µM]	3
- COC(=O)C1CCN(C(=O)COC(=O)CC(NC(C)=O)c2ccccc2)CC1 (configuration not stated)
  11%	1.6%	-4.2	1.6	-29%	0
- O=C(CCSc1nc(-c2ccco2)cc(C(F)(F)F)n1)Nc1ccc2c(c1)OCO2
  -4%	-2.5%	3.8	-1.4	u	34
- CCOc1ccccc1NC(=O)CNC(=O)c1nn(-c2ccc(OC)c(OC)c2)c(=O)c2ccccc12
  -9%	x	6.3	0.0	8%	-6
- Cc1cc(C)nc(N2C(=O)CC(Cc3ccc(Cl)cc3)C2=O)n1 (configuration not stated)
  -5%	-2.5%	-0.3	-0.5	-1%[15.4 µM]	19
- COC(=O)CN(c1ccccc1F)S(=O)(=O)c1ccc(C)cc1
  -12%	x	-5.6	-0.3	-15%[15.4 µM]	29
- CCOc1ccc(C(=O)SC2=NCCS2)cc1
  -2%	0.6%	12	-0.1	-1%	21
- CCCCn1c(N)c(N(CC(C)C)C(=O)c2cc(-c3ccncc3)nc3ccccc23)c(=O)[nH]c1=O
  7%	-3.0%	x	-0.1	5%	11
- COc1cc(-c2nc3nc(C)cc(C)n3c2Nc2ccc(Cl)cc2)ccc1O
  x	-2.7%	x	3.1	x	6
- C/C=C/C=C(/NC(=O)c1ccccc1)C(=O)Nc1ccccc1
  8%	-2.7%	x	-0.2	13%	3
- COc1cccc(-n2c(SCC(=O)N3CCOCC3)nc3c([nH]c4ccccc43)c2=O)c1
  -11%	-7.1%	x	-0.3	-2%	-6
- CCOC(=O)C1CCCN(C(=O)/C=C/c2cccc([N+](=O)[O-])c2)C1 (configuration not stated)
  -7%	25µM*	3.3	-0.8	u	-11
- O=C(c1cc(-c2ccco2)nc2ccccc12)N1CCN(Cc2ccccc2)CC1
  -18%	3.6%	x	-0.1	15%	14
- COCCN1CN(S(=O)(=O)c2cccc(Cl)c2)c2nc3ccccc3nc21
  u	3.8%	-3.5	0.5	1%	-2
- CC(=O)NCCc1c[nH]c2ccc(O)cc12
  -14%	-21%	3.1&-0.1	-0.6	x	-2
- Nc1ncnc(Nc2ccc(S(N)(=O)=O)cc2)n1
  10%	-0.3%	0.5	-0.2	u	8
- CSc1nc(-c2ccco2)nn1S(=O)(=O)c1ccc(C)cc1
  0%	-0.4%	1.5	0.6	u	13
- C=CCn1c(=O)[nH]c2nc3cc(N=CN(C)C)c(C)cc3nc2c1=O
  -7%	-2.8%	u	25	12%	-3
- COCc1cccc(NC(=O)CCc2ccccc2)c1
  7%	x	-3.3	-0.8	19%	-3
- COC(=O)c1cc(S(=O)(=O)NC2CCC(C)CC2)cn1C (configuration not stated)
  -2%	0.6%	x	-1.0	-3%	-3
- COc1ccccc1CN1[C@@H](CC(C)=O)c2cc(C(F)(F)F)ccc2S1(=O)=O
  2%	-4.5%	x	1.8	-37%[inhibitor]	12
- COc1ccc(C(=O)CSc2nnc(-c3ccc(S(=O)(=O)N4CCOCC4)cc3)o2)cc1
  6%	0.6%	0.9	-0.4	u	-7
- CCCCN(Cc1ccco1)C(=O)Cn1ncc2c(=O)oc3ccc(C)cc3c21
  -6%	0.9%	2.0	-0.1	-18%	-2
- CCOC(=O)C1(CCOc2ccccc2)CCN(Cc2cccn2-c2ncccn2)CC1
  6%	x	1.0	-0.1	-9%	-5
- CCCOc1ccc(/C=N/NC(=S)Nc2ccccc2[N+](=O)[O-])c(O)c1
  -13%	0.9%	-2.0	2.1	-6%	-8
- COc1cc2sc3ccc(C#Cc4ccc(N)cc4)cc3c(=O)c2cc1OC
  2%	2.7%	x	1.0	x	-19
- CCS(=O)(=O)NC(C)C(c1cccs1)N1CCN(C)CC1 (configuration not stated)
  10%	2.1%	-1.0	0.3	-24%	-13
- O=C1OCCN/C1=C\C(=O)c1ccccc1
  4%	x	3.2	-0.4	-12%[15.4 µM]	-14
- O=C(CSc1nnc(-c2ccccc2F)n1C1CC1)NC(=O)c1cccc([N+](=O)[O-])c1
  -15%	0.2%	9.9	-0.1	9%	23
- CCOc1ccc(CN(C)CC(=O)Nc2cccc(C)c2)cc1OC
  0%	x	0.1	-1.5	2%[15.4 µM]	-4

Every second line gives: gsp antagonist	ClpP mod	Menin MLL FP FL	TRPML1 agonist	gsp agonist	TRPML1 blocker
- Nc1c(Cl)cc(NC(=O)c2ccccc2C(=O)O)cc1Br
  -3%	-1.4%	10	0.1	-4%[15.4 µM]	-1
- NC(=O)c1ccc(NC(=O)c2ccc3c(c2)OCO3)cc1
  8%	-2.2%	0.3	0.7	1%	-4
- COc1ccccc1CNC(=O)Cc1c(C)c2c(cc(C)c3c(C)coc32)oc1=O
  x	u	x	0.0	x	-1
- CCOc1ccc(C(=O)NCCc2sc(-c3ccc(C)cc3)nc2C)cc1
  x	3.9%	x	2.4	x	45
- Cc1cc(C)cc(Nc2nc3c(S(=O)(=O)c4ccccc4)nnn3c3ccccc23)c1
  12%	-28%	4.9	1.4	0%	13
